A647 autofl: compound fluoresces in the A647 spectral region | Compound fluorescence, A647 channel (570/671 nm), Tris buffer | max dye-equivalent concentration, M | 59,000 tested, under 10 active | AID 592; active means above 1 µM dye equivalent; inconclusive means 0.1 to 1 µM; inactive means 0.1 µM or less;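 note: values scaled relative to a standard on each plate; highest value over a series up to 38 µM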
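Spectral profiling of library compounds in pH 8.0 Tris: 15 min room-temperature incubation, single ex/em pair (570/671 nm), response normalized to Alexa 647 equivalents.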
AID923: qHTS Assay for Allosteric/Competitive Inhibitors of Caspase-1: Spectroscopic Profiling in AFC Spectral Region. Potency, µM (doses to about 57.5 µM), for inactives: at the top dose fluorescence increase, hits mostly activators. actives 1.1% (n = 75,000). compound fluorescence, AFC spectral region (405/520 nm); almost no hit is shown here; active = well fitted activation curve with a large enough effect; inconclusive = small, poorly fitted or top-dose-only effect;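 note: potency is the fitted concentration of half-maximal effect; 0% is about no effect; scaled to a free AFC standard on each plate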
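Compound autofluorescence profiled at 405 nm ex/520 nm em during kinetic caspase 1 run (50 nM enzyme, 5 uM Ac-WEHD-AFC, HEPES pH 7.5, 10 mM DTT). Titration up to 57 uM; baseline from regression intercept, normalized to AFC standard curve.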
A488 fluor: compound autofluorescence in A488 spectral region; compound autofluorescence, A488 spectral region, dye equivalency; hits give high values; max dye equivalency, M; actives 0.1% (n = 59,000); active = above 10 nM dye equivalent; inconclusive = 1 to 10 nM; inactive = 1 nM or less; about half of its hits are not listed in these tables;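 note: highest value over a series up to 38 µM; compound alone in buffer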
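Intrinsic compound fluorescence is measured in 100 mM Tris buffer at pH 8.0 following 15 min incubation at room temperature. Intensities at 480 nm excitation/540 nm emission are calibrated to an on-plate A488 concentration series, giving dye-equivalent concentrations.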
Resorufin fluor: resorufin region autofluorescence; Compound fluorescence, resorufin region 547/598 nm, buffer; hits give high values; max dye-equivalent concentration, M; actives 0.04% (n = 59,000); AID 588; active = above 10 nM dye equivalent; inconclusive = 1 to 10 nM; inactive = 1 nM or less; a few of its hits are not listed in these tables; note: highest value over a series up to 38 µM
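Dye-equivalent concentration values derive from comparing each well's 547/598 nm fluorescence against resorufin standards included on every plate. Incubation was 15 min at room temperature in 100 mM Tris, pH 8.0.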
TSHR agonist: TSH receptor (human) agonism; P16473; HEK293-CNG-TSHR cells (CNG channel as cAMP sensor), membrane potential dye, cAMP; Potency, µM (titrated, usually from 57.1 µM), for the others: at the top dose activation, actives largely listed as activators; actives 0.48% (n = 73,000); active = well fitted activation curve of enough size with the parental cells flat; inconclusive = any curve in the parental cells; inactive = parental cells flat and receptor cells flat or falling; note: potency is the fitted concentration of half-maximal effect; % of control where 0% means no effect; weak receptor curves with flat parental cells got no call and are not listed
Target sequence (P16473 whole entry, looked up): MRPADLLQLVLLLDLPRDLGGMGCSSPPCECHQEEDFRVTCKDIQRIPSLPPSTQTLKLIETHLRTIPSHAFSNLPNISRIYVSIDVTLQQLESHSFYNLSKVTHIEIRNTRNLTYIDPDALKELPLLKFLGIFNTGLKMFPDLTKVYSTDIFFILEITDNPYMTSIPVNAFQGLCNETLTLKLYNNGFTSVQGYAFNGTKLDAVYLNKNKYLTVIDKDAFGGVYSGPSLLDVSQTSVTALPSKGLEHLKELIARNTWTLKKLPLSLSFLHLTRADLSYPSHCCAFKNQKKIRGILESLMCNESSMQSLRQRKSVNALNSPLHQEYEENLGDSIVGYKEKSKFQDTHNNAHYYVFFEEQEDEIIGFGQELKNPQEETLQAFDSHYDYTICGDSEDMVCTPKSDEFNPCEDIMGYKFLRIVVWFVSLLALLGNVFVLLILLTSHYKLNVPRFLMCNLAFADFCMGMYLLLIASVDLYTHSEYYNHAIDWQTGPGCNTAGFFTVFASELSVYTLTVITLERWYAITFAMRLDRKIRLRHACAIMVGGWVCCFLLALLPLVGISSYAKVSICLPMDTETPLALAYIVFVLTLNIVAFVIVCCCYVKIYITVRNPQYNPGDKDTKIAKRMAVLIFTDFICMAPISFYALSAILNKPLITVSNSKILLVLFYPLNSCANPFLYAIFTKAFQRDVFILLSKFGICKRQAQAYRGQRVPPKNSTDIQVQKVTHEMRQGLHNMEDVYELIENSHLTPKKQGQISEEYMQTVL
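HEK 293 cells stably expressing TSHR and a cAMP-gated CNG channel; parental CNG-only cells as counterscreen. Cells preloaded 60 min with membrane potential dye plus 100 uM RO 20-1724, then compound 30 min; fluorescence read at 590 nm.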
Numbers without * were called inactive; i = inactive; ? = inconclusive; nt = no result given; & = joins results of further samples; [ ] = remark or other dose. An excerpt; rates above refer to the full screens.

smiles	A647 autofl	AID923	A488 fluor	Resorufin fluor	TSHR agonist
CC(=NCCN1CCCCC1)c1c(O)[nH]c(=O)[nH]c1=O	1.47e-08	1.3%	i	i	-0.7%
Cc1cccc(CN(C)C)c1OC(=O)N(C)C	1e-09	1.0%	i	i	?
COc1cc2c(cc1OC)[C@@]13CCN4C=C5CCO[C@H]6CC(=O)N2[C@@H]1[C@@H]6[C@H]5C[C@H]43	2.33e-08	1.4%[11.5 µM]	i	i	2.8%[11.4 µM]
COc1cccc(CN2CCN(C(=O)COc3ccc4ccccc4c3)CC2)c1	1.17e-08	nt	i	i	nt
COc1ccc(CN2CCN(c3ccccc3F)CC2)c(OC)c1	nt	-2.0%	nt	nt	?
N#CCCCl	nt	0.6%&-0.9%	nt	nt	?
CN1CCc2cc(O)cc3c2[C@H]1Cc1ccc(O)c(O)c1-3	1e-09	1.0%	i	i	11.4%
NCCCP(=O)(O)O	5.45e-08	-0.4%	i	i	0.9%
CCN1C[C@]2(COC(=O)c3ccccc3N3C(=O)C[C@H](C)C3=O)CC[C@H](OC)[C@@]34[C@@H]5C[C@H]6[C@H](OC)[C@H]5[C@](O)(C[C@@H]6OC)[C@@](O)([C@@H](OC)[C@@H]23)[C@@H]14	nt	-1.3%	nt	nt	4.8%
Cc1cc(N2C(=O)C3CCCN3C2c2ccc(Cl)c(Cl)c2)no1 (centres undefined)	2.1e-09	0.3%	i	i	?
COc1cc2c(cc1OC)[C@]13CC[N@+]4(C)CC5=CCO[C@H]6CC(=O)N2[C@@H]1[C@@H]6[C@@H]5C[C@]34O	4.58e-08	0.1%[11.5 µM]	i	i	0.1%[11.4 µM]
c1ccc(C2NCc3ccccc3-n3cccc32)cc1 (centres undefined)	nt	0.9%	nt	nt	?
O=c1cccc2n1C[C@@H]1C[C@H]2CN2CCCC[C@H]12	1e-09	nt	i	i	-8.1%
c1cc2cc(c1)C[n+]1ccc(c3ccccc31)NCc1ccc(cc1)CNc1cc[n+](c3ccccc13)C2	nt	-1.4%	nt	nt	-1.7%
COc1cc2c(cc1O)-c1c(O)c(OC)cc3c1[C@H](C2)N(C)CC3	1e-09	13.2%	i	i	-1.7%
COC(=O)C(c1ccccc1)C1CCCCN1 (centres undefined)	nt	2.1%	nt	nt	?
Cn1c2ccccc2c2c(C(=O)N3CCC4(CC3)OCCO4)cn(C3CCCC3)c(=O)c21	1.7e-09	-0.7%	i	i	17.1%
CN1CCN(C2=Nc3cc(Cl)ccc3Nc3ccccc32)CC1	1e-09&3.88e-08&1e-09	4.1%	i	i	7.5%
CC[C@]1(c2cccc(O)c2)CCCCN(C)C1	2e-09	-0.9%[25.7 µM]	i	i	-0.7%[25.6 µM]
CNP1(NC)=NC(C(F)(F)F)=NC(C(F)(F)F)=N1	2.37e-08	-1.1%	i	i	1.2%
O=C(CCCN1CCC2(CC1)C(=O)N(CCc1ccc(N=C=S)cc1)CN2c1ccccc1)c1ccc(F)cc1	5.97e-08	nt	i	i	?
CCCN(CCC)[C@@H]1CCc2c(OC)cccc2[C@@H]1C	nt	1.0%	nt	nt	?
CCOP(=S)(OCC)SCOC(=O)NCC(=O)OC	nt	0.0%	nt	nt	-7.2%
O=C(COc1ccc(Cl)cc1)NC1CN2CCC1CC2 (centres undefined)	1e-09	0.6%	i	i	-1.1%
CCCCSP1(=S)NCCCN1	1e-09	nt	i	i	nt
CN1[C@H]2CC(OC(=O)[C@@H](CO)c3ccccc3)C[C@H]1[C@H]1O[C@H]12 (some centres undefined)	3.22e-08	-5.7%[25.7 µM]	i	i	18.9%[25.6 µM]
CCC1=C(C)C(N2CCOCC2)=NP(N2CCOCC2)(N2CCOCC2)=N1	2.8e-09	0.2%	i	i	0.2%[11.4 µM]
COc1ccc2c(c1)[C@]13CCCC[C@@H]1[C@H](C2)NCC3	6.9e-09	-1.3%	i	i	?
CCOC(=O)C(O)(c1ccc(N(CC)S(=O)(=O)c2ccccc2)cc1)C(F)(F)F (centres undefined)	2.1e-09	0.0%	i	i	7.1%
NCCc1ccc(S(=O)(=O)O)cc1[N+](=O)[O-]	1.7e-09	-0.4%[11.5 µM]	i	i	-0.2%[11.4 µM]
CCCCC(CC)COC(=O)c1ccc(C(=O)OCC(CC)CCCC)c(C(=O)OCC(CC)CCCC)c1 (centres undefined)	nt	-0.5%	nt	nt	?
CC(C)N[C@@H](C)Cc1ccc(I)cc1	1.6e-09	-0.3%	i	i	7.3%
Clc1cccc(SC2CCNCC2)n1	nt	-1.2%	nt	nt	20.7%
CS(=N)(=O)CC[C@@H](N)C(=O)O (some centres undefined)	1e-09&3.69e-08	-0.6%[25.7 µM]	i	i	-14.3%[25.6 µM]
O=[N+]([O-])c1cc(-c2ccc([As](=O)(O)O)cc2)ccc1[As](=O)(O)O	1e-09	-2.8%[11.5 µM]	i	i	0.1%[11.4 µM]
O=c1cccc2n1CC1CNC[C@H]2C1	1e-09&9.2e-09	-3.9%	i	i	-2.1%
CC=O	nt	2.6%	nt	nt	?
Cc1ccc(-c2nc3ccccc3c(=O)n2-n2cccc2)cc1	1e-09	-1.2%	i	i	nt
CC(C)Oc1cccnc1N(C)C1CCN(Cc2ccccc2)CC1	1.6e-08	-2.7%	i	i	23.2%
OC12CCCCC1C(c1ccccc1)NCC2 (centres undefined)	3e-08	-1.1%	i	i	nt
CN1CCC2=C[C@H](O)[C@@H]3OC(=O)c4cc5c(cc4[C@H]3[C@H]21)OCO5	1e-09	2.0%[25.7 µM]	i	i	-10.0%[25.6 µM]
CN1CCC(O)(c2ccccc2)C(C(=O)c2ccccc2)C1 (centres undefined)	nt	4.4%	nt	nt	3.7%
CCC(=O)N1CC(=O)Nc2ccc(Cl)cc2C1c1ccc(F)cc1 (centres undefined)	1.13e-08	-0.1%	i	i	?
O=c1[nH]c(=O)n(Cc2ccco2)c(O)c1C=NCc1ccc2c(c1)OCO2	3.6e-09	nt	i	i	nt
CN(C)C(=O)Nc1ccc(Cl)cc1	nt	0.5%	nt	nt	?
O=P1(NCc2ccco2)COc2ccccc2OC1	3.23e-08	-0.3%	i	i	10.1%
Clc1cc(Cl)c(Cl)c(Cl)c1	nt	0.5%	nt	nt	3.3%
[N-]=[N+]=[N-]	nt	4.6%	nt	nt	?
CC(C)(C)[C@@]1(O)C[C@@H]2OC(=O)C[C@@]23C(=O)O[C@H]2OC(=O)[C@@H](O)[C@]231	1e-09	nt	i	i	-2.6%
O=S(=O)(O)F	nt	6.1%	nt	nt	?
Cc1ccc(C(=O)Nc2nc3ccccc3n2CCN2CCCC2)cc1	nt	0.3%	nt	nt	?
O=C(O)C[C@H]1OCC=C2CN3CC[C@@]45C6=CC(=O)C(=O)C([N+](=O)[O-])=C6N[C@H]4[C@H]1[C@H]2C[C@@H]35	1e-09	-0.4%[11.5 µM]	i	i	2.3%[11.4 µM]
COc1ccccc1N1CCN(Cc2ccc(Br)s2)CC1	nt	4.9%	nt	nt	6.7%[11.4 µM]
Cc1cccc(C)c1N	nt	0.0%	nt	nt	-10.2%
CCN1CCN(C(=O)COc2ccc(S(=O)(=O)N(C)Cc3ccccc3)cc2)CC1	6e-09	-2.8%	i	i	1.3%
C/C=C1\C[N@@+]2(C)CC[C@@]34C(=C(C=O)[C@H]1C[C@H]32)Nc1ccccc14	4.44e-08	3.1%[25.7 µM]	i	i	2.3%[25.6 µM]
CN1CCN(c2ccc(N)c(N3CCN(C)CC3)c2)CC1	1e-09	2.6%	i	i	1.4%
Cc1cc(OCC(=O)NC2CCS(=O)(=O)C2)c2c3c(c(=O)oc2c1)CCC3 (centres undefined)	4.2e-08	-0.1%	i	i	15.1%
CCCCNC(=O)n1c(NC(=O)OC)nc2ccccc21	nt	0.0%	nt	nt	?
O=C(c1cc2ccccn2n1)N1CCN(Cc2ccccc2)CC1	nt	2.3%	nt	nt	?

Other entries:
smiles	A647 autofl	AID923	A488 fluor	Resorufin fluor	TSHR agonist
O=c1[nH]c(O)c(C=NC2CCN(Cc3ccccc3)CC2)c(=O)[nH]1	1e-09	nt	i	i	nt
COc1ccc(-n2c(SC)nc3ccccc3c2=O)cc1	2.6e-09	nt	i	i	nt
S=P(C1CCCCC1)(C1CCCCC1)[C@H](c1cccnc1)N1CCCC1	1e-09	-0.5%[11.5 µM]	i	i	3.9%[11.4 µM]
Cc1ccc(C(=O)C2CN3CCC2CC3)cc1 (centres undefined)	2.85e-08	0.0%	i	i	7.7%
O=C(O)[C@H]1[C@H]2CN[C@H](C(=O)O)[C@H]21	nt	2.9%	nt	nt	5.0%
O=C(NCC(c1cccnc1)N1CCN(c2ccc(F)cc2)CC1)Oc1ccccc1 (centres undefined)	1.06e-08	-1.5%	i	i	?
COc1ccc(CCN(C)Cc2ccncc2)cc1OC	1e-09	-1.2%	i	i	1.2%
COCc1c(CN)cnc(C)c1N	2.2e-08	1.0%	i	i	1.8%
Cc1cccc(-n2c(CN3C(=O)c4ccccc4C3=O)nc3ccccc3c2=O)n1	1.78e-08	1.6%	i	i	-1.4%
OCCOCC#CCN1CCOCC1	5.53e-08	nt	i	i	nt
CCCc1cc2c(n1Cc1cccc(Cl)c1)C(C)C1CN(C(=O)c3ccccc3)C(C)(C(=O)OC)C21 (centres undefined)	nt	0.3%	nt	nt	?
O=NN(CCO)CCO	nt	-0.8%	nt	nt	2.1%
C=C[C@@H]1CN2CC[C@@H]1C[C@H]2[C@H](O)c1ccnc2ccccc12	2.02e-08	nt	i	i	-4.9%
CCOC(=O)N(CC)c1ccc(C(O)(C(=O)OC)C(F)(F)F)cc1 (centres undefined)	1e-09	-2.1%	i	i	4.4%
CCN(CC)CCN=Cc1c(O)n(C2CCCCCC2)c(=O)[nH]c1=O	6.5e-09	0.8%	i	i	-5.2%
O=C1C2CCCN2C(c2cccnc2)N1c1ccc(Cl)cc1 (centres undefined)	1.7e-09	-1.9%	i	i	2.9%
FC(Cl)(Cl)Cl	nt	-1.2%	nt	nt	2.0%
O=C(O)[C@@H]1C[C@H]1[C@@H](NP(=O)(c1ccccc1)c1ccccc1)c1ccccc1	nt	-1.0%	nt	nt	3.0%
CCCCCCCCCOc1ccc2[nH]cc(CCN)c2c1	nt	-4.9%	nt	nt	-13.1%
CN1CCC2(CC1)CCN(C(=O)Oc1ccccc1)CC2	1e-09	2.4%	i	i	6.5%
O=C1NCN(c2ccccc2)C12CCNCC2	2.05e-08	-1.2%	i	i	0.5%
CC(=NCCN1CCCCC1)c1c(O)n(Cc2ccccc2)c(=O)[nH]c1=O	3.4e-09	-0.6%	i	i	4.5%

Entries of single compounds, quoted from the list. Values in the order: A647 autofl	AID923	A488 fluor	Resorufin fluor	TSHR agonist
`FC(Cl)(Cl)Cl` is listed as nt	-1.2%	nt	nt	2.0%
`O=C1NCN(c2ccccc2)C12CCNCC2` is listed as 2.05e-08	-1.2%	i	i	0.5%
`CCCCCCCCCOc1ccc2[nH]cc(CCN)c2c1` is listed as nt	-4.9%	nt	nt	-13.1%
`O=C1C2CCCN2C(c2cccnc2)N1c1ccc(Cl)cc1` (centres undefined) is listed as 1.7e-09	-1.9%	i	i	2.9%
`CN1CCC2(CC1)CCN(C(=O)Oc1ccccc1)CC2` is listed as 1e-09	2.4%	i	i	6.5%
